Mtb betalactam: beta-lactam sensitization of Mtb H37Rv; M. tuberculosis H37Rv growth with meropenem, percent inhibition; hits of this screen are not shown here; inhibition, % at 25 µM; AID 434955; 0.27% of 330,000 active;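 active = about 74% or more and at least 40 points above the plate without the antibiotic, then above 30% in a dose series; inconclusive = first-round hits that could not be retested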;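 also: growth measured after seven days incubation then overnight dye step; 0% = bacteria only wells and 100% = bacteria with antibiotic; twin plates without the antibiotic show which effects depend on it; some results filed as inactive read as strong as hits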
RecA intein inh: inhibitors of M. tuberculosis RecA intein splicing | P9WHJ3 | cell-free RecA intein splicing, fluorescence | inhibition, %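 (about 9 µM by stock and volumes)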 | 0.75% of 290,000 active; in the data active = inhibition above about 30%; inconclusive = no clear call, values can overlap the other calls;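 also: 0% = vehicle wells and 100% = reference inhibitor control wells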
Target sequence (P9WHJ3 whole entry, looked up): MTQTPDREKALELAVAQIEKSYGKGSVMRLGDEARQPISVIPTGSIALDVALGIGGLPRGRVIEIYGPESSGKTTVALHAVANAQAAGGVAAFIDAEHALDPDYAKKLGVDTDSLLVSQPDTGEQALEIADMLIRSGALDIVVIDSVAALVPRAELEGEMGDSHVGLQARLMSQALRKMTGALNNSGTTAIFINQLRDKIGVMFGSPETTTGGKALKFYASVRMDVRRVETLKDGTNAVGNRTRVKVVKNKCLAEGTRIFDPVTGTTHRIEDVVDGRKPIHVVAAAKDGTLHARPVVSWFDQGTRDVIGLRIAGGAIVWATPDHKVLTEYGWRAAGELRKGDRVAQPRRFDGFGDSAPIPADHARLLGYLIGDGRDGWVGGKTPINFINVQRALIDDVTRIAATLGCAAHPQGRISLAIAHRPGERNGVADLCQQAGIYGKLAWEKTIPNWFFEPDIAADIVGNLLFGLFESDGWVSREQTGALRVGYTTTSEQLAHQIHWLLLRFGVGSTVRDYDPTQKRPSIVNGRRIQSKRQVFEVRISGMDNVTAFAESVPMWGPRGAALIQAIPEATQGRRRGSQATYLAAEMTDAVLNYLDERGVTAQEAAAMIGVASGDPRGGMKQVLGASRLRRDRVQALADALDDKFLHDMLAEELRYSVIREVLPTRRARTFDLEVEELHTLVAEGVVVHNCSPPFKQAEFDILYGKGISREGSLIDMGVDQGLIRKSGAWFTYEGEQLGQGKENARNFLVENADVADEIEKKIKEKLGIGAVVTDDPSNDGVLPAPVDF
YopH PTP inh: inhibitors of Yersinia enterocolitica YopH tyrosine phosphatase | fluorescence Ex485/Em525 | inhibition, %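 (about 10 µM by stock and volumes)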 | 0.16% of 140,000 active | AID 898;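 active = inhibition of 50% or more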;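 also: controls were vehicle for no effect and minimum signal wells for full effect; inactives centre near -20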
Arbovirus inh: arbovirus infection inhibition. inhibition, % at 10 µM. 0.37% of 200,000 active. AID 1251. arbovirus infection cell-based antiviral screen;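 active = inhibition from about 30%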;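 also: bluetongue infection of BSR cells; cell survival read as ATP light after 72 h; 0% = infected wells without compound and 100% = uninfected wells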
Mtb growth: M. tuberculosis H37Rv growth inhibitors, H37Rv strain (AID 1626). M. tuberculosis H37Rv growth inhibition; higher % means a stronger effect. one-dose inhibition, % at 10 µM; IC50 in µM for titrated hits. 0.95% of 220,000 active;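 active = confirmed in a dose series; inconclusive = inhibition above 80% but not taken into the dose series; inactive = below 80% or under 30% at every dose of the series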;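 also: bacteria incubated seven days before Alamar blue readout; 0% = bacteria only wells and 100% = bacteria with antibiotic wells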
Arbovirus inh repeat: recorded beside Arbovirus inh, whose call it bears; inhibition, %; measured here: 10K subset replicate screen; many hits read low in the repeat;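 first of two repeat runs on a subset; 0% = infected and 100% = uninfected wells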
* = called active by the depositor; ? = inconclusive; nt = no result given. Only part of the results is shown. The share of hits here may be higher or lower than overall.

SMILES | Mtb betalactam | RecA intein inh | YopH PTP inh | Arbovirus inh | Mtb growth | others
Cc1ccc(F)cc1CNC(=O)C1CCC(=O)N(CCc2ccccc2)C1 (stereo not given) | 5 | 1.1 | nt | nt | nt
CC1C/C(=N\NC(=O)c2ccc([N+](=O)[O-])cc2)CC(C)(C)C1 (stereo not given) | 6 | 1.0 | nt | nt | 1%
COc1ccc(Cl)cc1NC(=O)c1c(-c2ccccc2)noc1C | 3 | -4.3 | -3 | -2 | 1%
CC(C)CC(=O)N1CCN(Cc2ccccc2[N+](=O)[O-])CC1 | 2 | nt | nt | 3 | 4%
CCC1=NC(c2ccccc2)N(O)C1(C)C (stereo not given) | -8 | -10 | -9 | 2 | -7%
CC1=C(C(=O)NC2CCCC(C)C2C)C2(CCCCC2)OC1=O (stereo not given) | 1 | nt | -2 | 2 | -11%
CCOC(=O)C1=C(C)NC(C)=C(C(=O)OCC)C1C(=O)OCC(=O)NC | 8 | -3.2 | nt | 13 | 6%
Cc1nc(N2CCOCC2)c2c(C)c(C(=O)Nc3ccc(F)cc3Cl)sc2n1 | 2 | 0.6 | nt | -4 | -7%
CCn1c(C)nc2cc(C(=O)NNC(=S)Nc3ccc(F)cc3)ccc21 | -7 | 1.2 | nt | nt | -10%
COc1ccc2c(c1)c(=O)oc1cc3oc(C)c(C)c3cc12 | nt | nt | -26 | -3 | nt
O=C(C[n+]1cccc(CNC(=O)c2ccc(OC(F)F)cc2)c1)Nc1cc(C(F)(F)F)ccc1Cl | 0 | 3.3 | -10 | -8 | 12%
COc1ccc(N2C(=O)C(O)C2c2ccc(C)cc2)cc1 (stereo not given) | -1 | 0.8 | -29 | 2 | 1%
CCN(CC(=O)NCc1ccc(F)cc1)C(=O)c1ccc(Cl)cc1 | -5 | 2.2 | nt | nt | nt
CCOC(=O)Cn1c(=O)c(F)cn(Cc2ccc(OC)c([N+](=O)[O-])c2)c1=O | -8 | 0.6 | nt | nt | nt
Cc1ccc(C(=O)N2CCOCC2)c(F)c1F | 3 | -1.5 | nt | 1 | -8%
CCOC(=O)NC(NC(=S)Nc1ccccc1[N+](=O)[O-])C(Cl)(Cl)Cl (stereo not given) | -5 | 1.7 | -18 | 8 | -4%
O=C(NNC(=O)C12CC3CC(CC(C3)C1)C2)c1ccccc1[N+](=O)[O-] | -1 | -0.5 | nt | nt | nt
Cc1nc2cc(NC(=O)CSc3nc4c(C)cccc4cc3C#N)ccc2s1 | 1 | -0.4 | -19 | -1 | -2%
CCC1COC(c2cccn2Cc2ccc(Cl)cc2)=N1 (stereo not given) | 8 | 1.4 | nt | 14 | 9%
O=c1c2sccc2nc(SCc2ccc([N+](=O)[O-])cc2)n1Cc1ccccn1 | 5 | 0.9 | -3 | 1 | -1%
Cc1ccc(C2CCN(C(=O)Nc3ccc(F)cc3)C2)cc1 (stereo not given) | -3 | -0.8 | nt | -3 | 2%
CCc1ccccc1NC1=NCC(=O)N1C1CCCCC1 | 2 | -4.2 | -8 | -1 | nt
CSCCC1NC(=O)N(CC(=O)Nc2ccc(N3CCCCC3)cc2)C1=O (stereo not given) | -3 | -4.1 | -25 | 0 | 8%
O=C(COc1ccc(Br)cc1CNCCCN1CCOCC1)Nc1ccccc1 | 1 | -3.4 | -27 | -3 | -2%
COC(=O)c1ccccc1NC(=O)CSc1nc2ccccc2c(=O)[nH]1 | 1 | -5.4 | 1 | 2 | 6%
(further entries)
SMILES | Mtb betalactam | RecA intein inh | YopH PTP inh | Arbovirus inh | Mtb growth | others
COC(=O)C1=C(c2cc3ccccc3s2)C[C@@H]2CC[C@H]1N2C(=O)NCCO | -9 | -17 | nt | nt | 12%
CCC(C)[C@H](NC(=O)N1CCCCCC1)C(=O)OC (stereo not given in full) | -6 | 0.5 | nt | nt | 0%
CCn1c(/C=C/c2c(C)[nH]c3ccccc23)nc2ccccc2c1=O | 7 | -12 | -29 | -1 | 12%
COc1ccc(C(=O)CSc2nnc(-c3cccs3)n2-c2ccccc2)cc1 | -3 | 1.2 | -10 | 0 | 1%
Cc1cccc(C(=O)NNC(=S)NC(=O)c2ccccc2)c1 | 95 | 3.4 | nt | nt | nt
CCOc1nc(N2CCOCC2)nc(C)c1[N+](=O)[O-] | -1 | 0.1 | -3 | -12 | 5%
CCOc1ccc(S(=O)(=O)N(C)CC(=O)N2CCN(CC)CC2)cc1 | 2 | -1.4 | nt | nt | nt
Cc1ccc([N+](=O)[O-])cc1NC(=O)Cc1cccs1 | -7 | -0.3 | nt | -6 | 0%
Cc1ccc(NC(=O)CSc2nc3ccccc3c(=O)n2Cc2cccs2)cc1 | 7 | -0.8 | -26 | -1 | 3%
COc1ccc2cnnc(SCC(=O)Nc3ccccc3)c2c1OC | -3 | 2.2 | -21 | -5 | 0%
CC1=CC(C)(C)N(C(=O)CSc2nncn2C)c2ccccc21 | 1 | 0.8 | -39 | 5 | 4%
CCCCOCCCNC(=O)c1ccc(OC)cc1 | -2 | 2.9 | -13 | 5 | 4%
Cn1c(=O)oc2cc(S(=O)(=O)N3CCCc4ccccc43)ccc21 | 9 | 2.0 | -36 | -6 | -3% | Arbovirus inh repeat=-5
C=CCn1c(=O)n(CCC#N)c(=O)n(CCC#N)c1=O | -12 | -1.7 | -41 | 10 | -12%
O=C(NCC1CCNCC1)c1ccncc1 | -11 | -0.6 | -4 | -3 | -8%
CCC(C)(C)NC(=O)c1cc(S(=O)(=O)N2CCc3ccccc32)cn1C | -6 | -3.5 | nt | nt | nt
CN(Cc1ccccc1)S(=O)(=O)c1ccc2c(c1)OCCO2 | -9 | -1.8 | -15 | 13 | -5%
COc1cc(C(c2c(O)cc(C)[nH]c2=O)c2c(O)cc(C)[nH]c2=O)ccc1O | 3 | -6.0 | nt | nt | nt
O=C(N1CCN(c2ncccn2)CC1)C12CC3CC(CC(C3)C1)C2 | -6 | 5.3 | nt | nt | nt
CSCC[C@H](NC(=O)[C@@H]1CSC2c3ccccc3C(=O)N21)C(=O)N1CCC[C@H]1CO (stereo not given in full) | -6 | 1.5 | nt | nt | nt
O=C(CSc1nc2ccccc2o1)Nc1nc(-c2ccccc2)c(-c2ccccc2)s1 | 98 | 2.2 | -15 | 21 | 10µM*
COC(=O)[C@H](CCSC)NC(=O)NC1CCN(Cc2ccccc2)CC1 | -9 | -1.8 | -48 | 1 | 3%
COc1ccc(OC)c(/C=C/C(=O)Nc2ccc3c(c2)CCC3)c1 | -11 | 6.1 | -40 | 5 | 0%
CCOCCCNC(=O)C(=O)NCCCOCC | 1 | 3.7 | -18 | -9 | -1%
Cc1sc2ncnc(SCC(=O)c3ccc4c(c3)OCCO4)c2c1-c1ccccc1 | 4 | -2.6 | -28 | -1 | nt

Random excerpt: three records from the list
SMILES | Mtb betalactam | RecA intein inh | YopH PTP inh | Arbovirus inh | Mtb growth | others
Cn1c(=O)oc2cc(S(=O)(=O)N3CCCc4ccccc43)ccc21 | 9 | 2.0 | -36 | -6 | -3% | Arbovirus inh repeat=-5
CCOc1nc(N2CCOCC2)nc(C)c1[N+](=O)[O-] | -1 | 0.1 | -3 | -12 | 5%
C=CCn1c(=O)n(CCC#N)c(=O)n(CCC#N)c1=O | -12 | -1.7 | -41 | 10 | -12%

Returning to the listing with the 2 entries that preceded the break.
SMILES | Mtb betalactam | RecA intein inh | YopH PTP inh | Arbovirus inh | Mtb growth | others
CCOCCCNC(=O)C(=O)NCCCOCC | 1 | 3.7 | -18 | -9 | -1%
Cc1sc2ncnc(SCC(=O)c3ccc4c(c3)OCCO4)c2c1-c1ccccc1 | 4 | -2.6 | -28 | -1 | nt
Nc1ccc(S(=O)(=O)Nc2nccc(/C=C/c3ccc(Br)s3)n2)cc1 | 2 | 4.0 | nt | -6 | -4%
CCCCNC(=S)Nc1ccc(OC)nc1 | -9 | 4.4 | nt | 10 | -8%
CC(N=Cc1cc([N+](=O)[O-])ccc1O)c1ccccc1 (stereo not given) | 1 | 3.5 | nt | 16 | -5%
Cc1ccc(C2C(C(N)=S)=C(N)OC3=C2C(=O)CC(C)(C)C3)cc1 (stereo not given) | 4 | -6.1 | -20 | -10 | 1%
Cc1[nH]nc2c1C1(CCOCC1)C(C#N)=C(N)O2 | -8 | 78* | -54 | 3 | -5%
C=C(C)Cn1c(CCCNC(=O)CCC)nc2ccccc21 | -4 | 4.3 | -4 | 8 | -11% | Arbovirus inh repeat=0
O=C(/C=C/c1ccc(Br)o1)OCc1nc2ccsc2c(=O)[nH]1 | 8 | 0.9 | nt | nt | nt
O=C(CCc1c[nH]c2ccccc12)NCC(=O)Nc1ccc(F)c(F)c1F | -6 | -2.6 | nt | 19 | -5%
COC(=O)CSc1ccccc1C(=O)OC | 3 | -0.1 | -26 | 9 | -7%
O=C(NCC1CCCO1)C1CCCCN1S(=O)(=O)c1ccc(F)cc1 (stereo not given) | 0 | -1.9 | -36 | 6 | 0% | Arbovirus inh repeat=4
CN(C(=O)C12CC3CC(CC(C3)C1)C2)C1(C)CCS(=O)(=O)C1 (stereo not given) | -2 | 3.2 | -6 | -21 | -12%
Cc1ccsc1/C=C/C1=Cc2c(sc(NC(=O)CSc3n[nH]c(N)n3)c2C#N)C(C)(C)C1 | -7 | -8.1 | -6 | 13 | 6%
O=C(Nc1nc(-c2nc3ccccc3s2)cs1)c1ccc(S(=O)(=O)N2CCOCC2)cc1 | 7 | -1.1 | 7 | -8 | nt
Cc1ccnc(NS(=O)(=O)c2ccc(NS(=O)(=O)c3cc(Cl)ccc3Cl)cc2)n1 | 5 | -0.9 | nt | nt | nt
CCOC(=O)C1CCN(C(=O)c2cc3cc(F)ccc3[nH]2)CC1 | -3 | -2.0 | nt | nt | nt
Cc1cc(NN)nc2ccc(Cl)cc12 | -4 | nt | nt | -6 | 8%
CCOC(=O)c1[nH]c2c(c1-c1ccccc1)C(=O)CC(c1ccc(Cl)cc1)C2 (stereo not given) | 11 | 2.0 | -18 | -3 | nt
CC(C)(/C=N/O)/[N+]([O-])=C/C=[N+](\[O-])C(C)(C)/C=N/O | 4 | -0.4 | -2 | 7 | 10%
Cc1ccc(C(=O)N2CCN(Cc3ccc4c(c3)OCO4)CC2)o1 | -8 | -0.9 | 1 | 5 | ?
Cc1ccc(-c2nnc(N(C)C(=O)c3ccccn3)s2)cn1 | -2 | -1.6 | -6 | -2 | 4%

Of the compounds above, three have bromine:
SMILES | Mtb betalactam | RecA intein inh | YopH PTP inh | Arbovirus inh | Mtb growth | others
O=C(COc1ccc(Br)cc1CNCCCN1CCOCC1)Nc1ccccc1 | 1 | -3.4 | -27 | -3 | -2%
Nc1ccc(S(=O)(=O)Nc2nccc(/C=C/c3ccc(Br)s3)n2)cc1 | 2 | 4.0 | nt | -6 | -4%
O=C(/C=C/c1ccc(Br)o1)OCc1nc2ccsc2c(=O)[nH]1 | 8 | 0.9 | nt | nt | nt

Screening data: PubChem, several laboratories
